Vif A3G: inhibitors of Vif binding to APOBEC3G peptide, primary screen, biochemical, TR-FRET, GST-Vif 1-94, biotin-A3G peptide, dose response retest (AID 1117319); TR-FRET GST-Vif / biotin-A3G peptide binding; higher % means a stronger effect; test concentration not given here; strong numbers were not always called active; inhibition, %, or IC50 in µM where a hit was titrated; 260,000 compounds, 0.57% hits;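 active = above the screen mean plus three standard deviations and confirmed in dose response; inconclusive = results disagree or hit not tested in dose response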;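 note: Vif residues 1-94 fused to GST binding biotinylated APOBEC3G peptide 110-148; 0% = full assay without inhibitor and 100% = GST in place of GST-Vif; retest series ran down from 100 µM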
HNF4A DNA FP: change in binding of human HNF4 alpha to DNA; 360,000 compounds, 0.3% hits; P41235; activity change, % at 10 µM; HNF4a-FITC DNA binding, fluorescence polarization, 1 h; AID 1224865; in the data active = activity change above about 30%, passing the limit was not always enough;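 note: controls were the assay level and a saturating level of protein; the project sought stronger binding though the title names inhibitors; some compounds called inactive have numbers as strong as hits; positive values seem to mean higher polarization but the record does not say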
Target sequence (P41235 whole entry, looked up): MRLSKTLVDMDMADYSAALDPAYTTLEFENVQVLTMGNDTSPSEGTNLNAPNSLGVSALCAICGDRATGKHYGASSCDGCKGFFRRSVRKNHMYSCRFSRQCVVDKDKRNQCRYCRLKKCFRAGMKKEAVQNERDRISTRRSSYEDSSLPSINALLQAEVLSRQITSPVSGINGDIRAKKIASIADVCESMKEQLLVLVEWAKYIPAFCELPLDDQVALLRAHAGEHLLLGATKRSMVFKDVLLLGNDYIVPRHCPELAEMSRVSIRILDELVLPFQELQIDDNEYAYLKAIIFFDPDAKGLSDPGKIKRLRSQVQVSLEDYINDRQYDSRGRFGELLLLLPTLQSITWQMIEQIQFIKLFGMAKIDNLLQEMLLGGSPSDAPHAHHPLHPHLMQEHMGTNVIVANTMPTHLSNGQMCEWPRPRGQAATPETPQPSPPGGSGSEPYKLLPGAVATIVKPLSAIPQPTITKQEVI
MLL AF4-AF9 inh: blocks AF4 peptide binding to human AF9; P42568; AlphaScreen, biotin-AF4 peptide binding to FLAG-AF9; inhibition, % at 10 µM; 350,000 compounds, 0.47% hits; AID 651704;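 active = every replicate reaching a set inhibition limit, whatever the replicate mean, cut at about 25% in these data; inconclusive = mean inhibition reaches that limit but some replicates miss it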;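 note: 0% = plate neutral control median and 100% = total signal loss; the record names both 10 and 1 µM as test concentration; the first replicate is given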
ALR inh: inhibitors of human sulfhydryl oxidase ALR; P55789; purified ALR, DTT oxidation, H2O2 HRP-luminol luminescence; inhibition, % (concentration not given with the values); 290,000 compounds, 3.8% hits;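 active = mean and each replicate at 75% or more; inconclusive = only one of the two met; inactive = neither met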;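 note: stock transfer was 7.5 nL into about 7.5 µL; 0% = neutral wells and 100% = wells with inactivated enzyme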
Target sequence (P55789 whole entry, looked up): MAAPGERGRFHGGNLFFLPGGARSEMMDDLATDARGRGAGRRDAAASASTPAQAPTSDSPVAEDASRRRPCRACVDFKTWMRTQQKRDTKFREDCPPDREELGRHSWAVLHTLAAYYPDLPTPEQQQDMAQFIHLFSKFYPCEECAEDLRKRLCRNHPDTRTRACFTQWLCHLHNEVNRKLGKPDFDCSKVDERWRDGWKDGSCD
FGF22 binding: shifts melting point of recombinant human FGF22 | Q9HCT0 | recombinant FGF22 thermal shift, SYPRO orange fluorescence; percent of sucrose octasulfate shift, DMSO zero | calls only at 9.99 µM | 340,000 compounds, 1.5% hits | AID 651658;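 active = melting point raised past a set limit in the mean and every replicate; inconclusive = no clear call; three in four hits are not shown here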
Target sequence (Q9HCT0 whole entry, looked up): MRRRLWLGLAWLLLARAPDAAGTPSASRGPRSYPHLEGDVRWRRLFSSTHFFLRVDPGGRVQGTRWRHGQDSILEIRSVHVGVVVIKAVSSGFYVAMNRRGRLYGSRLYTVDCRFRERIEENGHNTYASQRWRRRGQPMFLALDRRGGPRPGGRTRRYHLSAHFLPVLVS
Ecoli growth: blocks Escherichia coli growth; OD600, 23 h; stronger effect = lower value; OD600 absorbance (no concentration beside the values); 330,000 compounds, 0.21% hits;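 active = OD600 absorbance below the run mean of sample wells minus 3.6 SD, in any replicate, cut at about 0.56 in these data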;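 note: stock transfer was 300 nL into about 60 µL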
rRNA inh HTS: inhibitors of bacterial rRNA selective over humanized ribosomes. E. coli WT GFP vs humanized-ribosome RFP mutants, fluorescence, 24 h; stronger effect = lower value; DMSO median 0, no signal -100. GFP signal change (wild-type ribosome), % (test concentration not listed). 350,000 compounds, 1.6% hits;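 active = significant combined selectivity score with lowered wild-type GFP, culture density cut under 30%, mutant RFP and density less affected; inactive = any of these conditions unmet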; note: one replicate is shown; some compounds called inactive have numbers as strong as hits
rRNA inh HTS OD600: further read-out of rRNA inh HTS, marked with its call; OD600 change, %; measured here: OD600 growth;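 optical density of the mix in the first replicate; 0 = DMSO median and -100 = no signal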
rRNA inh HTS RFP: second read-out of rRNA inh HTS, no call of its own (marks repeat the call); RFP signal change, %; measured here: RFP humanized mutant strains;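 first replicate; 0 = DMSO median and -100 = no signal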
* hit, by the source's call; & = joins results of further samples. The list is partial; rates above refer to the full screens.

For O=C(NC(=S)NCc1ccccc1)c1ccccc1 the results were Vif A3G -8.3%, HNF4A DNA FP 0.3, ALR inh -0.4 and Ecoli growth 0.64.
COc1ccc(N2CCN(C(=S)Nc3ccccc3)CC2)cc1 was read as HNF4A DNA FP 2.3, MLL AF4-AF9 inh 2.8, ALR inh 11.9, FGF22 binding inactive, Ecoli growth 0.643, rRNA inh HTS 13.5, rRNA inh HTS OD600 11.3 and rRNA inh HTS RFP 3.8.
Screening COc1ccc(S(=O)(=O)Nc2ccc3c(c2)C(=O)N([C@H](C)CO)C[C@H](C)[C@H](CN(C)C(=O)Nc2ccc(C(F)(F)F)cc2)OCCCC[C@H](C)O3)cc1 returned MLL AF4-AF9 inh 2.4, FGF22 binding inactive, rRNA inh HTS 5.0, rRNA inh HTS OD600 2.8 and rRNA inh HTS RFP -2.3.
Screening CN(C)/C=N/c1sc2c(c1C#N)CCCC2 returned Vif A3G 20.0%, HNF4A DNA FP 0.4, MLL AF4-AF9 inh 1.2, ALR inh 99.6*, FGF22 binding inactive, rRNA inh HTS -0.3, rRNA inh HTS OD600 -5.2 and rRNA inh HTS RFP 14.9.
Screening C[C@@H]1CN([C@@H](C)CO)S(=O)(=O)c2ccc(C#Cc3ccc(F)cc3)cc2O[C@@H]1CN(C)C(=O)CN(C)C returned MLL AF4-AF9 inh 11.6, FGF22 binding inactive, rRNA inh HTS -1.1, rRNA inh HTS OD600 -1.7 and rRNA inh HTS RFP -0.4.
For COC(=O)c1c(C)[nH]c(C(=O)/C=C/c2ccc(C)cc2)c1C the results were Vif A3G -8.2%, HNF4A DNA FP 3.1, ALR inh 2.5, FGF22 binding inactive, Ecoli growth 0.655, rRNA inh HTS 2.9, rRNA inh HTS OD600 4.0 and rRNA inh HTS RFP 0.5.
O=C1Nc2ccccc2C1Cc1ccc(OC(F)(F)F)cc1 (configuration not stated) was read as HNF4A DNA FP -3.6, MLL AF4-AF9 inh 0.3, FGF22 binding inactive, Ecoli growth 0.668, rRNA inh HTS -12.5, rRNA inh HTS OD600 -17.6 and rRNA inh HTS RFP 2.8.
Screening C[C@@H]1CCCCO[C@@H](CN(C)S(=O)(=O)c2ccc(F)cc2)[C@@H](C)CN([C@H](C)CO)C(=O)c2cc(NC(=O)Nc3ccc4c(c3)OCO4)ccc2O1 returned MLL AF4-AF9 inh -3.0, FGF22 binding inactive, rRNA inh HTS 0.3, rRNA inh HTS OD600 5.9 and rRNA inh HTS RFP 0.4.
Screening Cc1ccc(OCC(=O)Nc2cccc3nsnc23)c(C)c1 returned Vif A3G 1.4%, HNF4A DNA FP 0.0, ALR inh -55.9 and Ecoli growth 0.807.
Cc1nn(C)c(=O)n1-c1ccc(Oc2ccccc2)cc1 was read as Vif A3G -0.6%, HNF4A DNA FP -3.4, ALR inh -6.8 and Ecoli growth 0.712.

Looked up one by one from the entries so far:
Screening C[C@@H]1CCCCO[C@@H](CN(C)S(=O)(=O)c2ccc(F)cc2)[C@@H](C)CN([C@H](C)CO)C(=O)c2cc(NC(=O)Nc3ccc4c(c3)OCO4)ccc2O1 returned MLL AF4-AF9 inh -3.0, FGF22 binding inactive, rRNA inh HTS 0.3, rRNA inh HTS OD600 5.9 and rRNA inh HTS RFP 0.4.
For O=C(NC(=S)NCc1ccccc1)c1ccccc1 the results were Vif A3G -8.3%, HNF4A DNA FP 0.3, ALR inh -0.4 and Ecoli growth 0.64.

Remaining list, next part.
For CC(=O)Nc1ccc2oc(-c3ccccc3Br)nc2c1 the results were Vif A3G -9.8%, HNF4A DNA FP -0.4, ALR inh 3.9 and Ecoli growth 0.688.
`Cc1nc(C)c(-c2csc(N)n2)s1` gave HNF4A DNA FP -0.7, MLL AF4-AF9 inh -1.2, ALR inh 90.9*, FGF22 binding inactive, Ecoli growth 0.686, rRNA inh HTS 6.4, rRNA inh HTS OD600 4.5 and rRNA inh HTS RFP -0.8.
Screening COCC(=O)N[C@H]1CC[C@@H](CC(=O)NCc2ccc(Cl)cc2)O[C@H]1CO returned MLL AF4-AF9 inh 1.0, FGF22 binding inactive, rRNA inh HTS 5.9, rRNA inh HTS OD600 7.9 and rRNA inh HTS RFP 1.9.
Screening C[C@H]1CN([C@@H](C)CO)C(=O)c2cccc(NC(=O)c3ccc(-c4nccs4)cc3)c2O[C@@H]1CN(C)Cc1ccccc1 returned MLL AF4-AF9 inh 6.3, FGF22 binding inactive, rRNA inh HTS -10.0, rRNA inh HTS OD600 -9.8 and rRNA inh HTS RFP 7.7.
COc1ccc(S(=O)(=O)N(C)C[C@H]2Oc3ncc(-c4ccncc4)cc3C(=O)N([C@@H](C)CO)C[C@H]2C)cc1 was read as MLL AF4-AF9 inh -32.7, FGF22 binding inactive, rRNA inh HTS 5.8, rRNA inh HTS OD600 3.0 and rRNA inh HTS RFP -0.2.
Screening Cc1ccc(S(=O)(=O)Nc2ccc3c(c2)C(=O)N(C)[C@H]2CC[C@H](CC(=O)NCCc4ccncc4)O[C@H]2CO3)cc1 returned MLL AF4-AF9 inh 0.1, FGF22 binding inactive, rRNA inh HTS -0.8, rRNA inh HTS OD600 14.0 and rRNA inh HTS RFP 0.6.
Screening NC1=NC(=O)C(Cc2cccc(Cl)c2Cl)S1 (configuration not stated) returned HNF4A DNA FP -3.1, MLL AF4-AF9 inh 0.9, ALR inh 0.5, FGF22 binding inactive, Ecoli growth 0.645, rRNA inh HTS 7.8, rRNA inh HTS OD600 8.5 and rRNA inh HTS RFP -1.0.
Screening CCOc1ccc(C(=O)Nc2ccc(N3CCN(C(C)=O)CC3)cc2)cc1[N+](=O)[O-] returned Vif A3G 3.9%, HNF4A DNA FP 4.4, MLL AF4-AF9 inh -1.3, ALR inh 21.6, FGF22 binding inactive and Ecoli growth 0.673.
O=C1NC2(CCCCC2)C(=O)N1Cc1ccc([N+](=O)[O-])cc1 was read as Vif A3G -5.5%, HNF4A DNA FP -2.0, MLL AF4-AF9 inh -3.4, ALR inh -5.1, FGF22 binding inactive, Ecoli growth 0.712, rRNA inh HTS 7.3, rRNA inh HTS OD600 4.5 and rRNA inh HTS RFP -9.5.
`CCCC(=O)NCCc1ccc(S(N)(=O)=O)cc1` gave Vif A3G inconclusive, HNF4A DNA FP 2.1, ALR inh -3.2 and Ecoli growth 0.66.
COC(=O)[C@@H]1C[C@@]2(Br)c3ccccc3N(S(=O)(=O)c3ccccc3)[C@H]2N1C(=O)OC was read as HNF4A DNA FP -2.6, ALR inh -2.1, FGF22 binding inactive, rRNA inh HTS -6.2, rRNA inh HTS OD600 -5.3 and rRNA inh HTS RFP 3.1.
For C[C@@H]1CN([C@H](C)CO)C(=O)CCCn2cc(nn2)CO[C@H]1CN(C)Cc1ccc(C(=O)O)cc1 the results were MLL AF4-AF9 inh 1.6, FGF22 binding inactive, rRNA inh HTS 1.1, rRNA inh HTS OD600 5.7 and rRNA inh HTS RFP -1.4.
O=C(Nc1ccc(Br)cc1)C1CCCN(S(=O)(=O)c2cccnc2)C1 (configuration not stated) was read as Vif A3G -1.8%, HNF4A DNA FP 1.4, MLL AF4-AF9 inh -4.5, ALR inh -0.6, FGF22 binding inactive, Ecoli growth 0.649, rRNA inh HTS 6.5, rRNA inh HTS OD600 4.2 and rRNA inh HTS RFP -10.2.
Screening CO[C@H]1CN(C)C(=O)c2cc(NC(=O)C3CCCC3)ccc2OC[C@@H](C)N(C)C[C@H]1C returned MLL AF4-AF9 inh -1.8, FGF22 binding inactive, rRNA inh HTS 1.5, rRNA inh HTS OD600 1.8 and rRNA inh HTS RFP -1.8.
`COCC(=O)Nc1ccc2c(c1)C(=O)N(C)C[C@@H](OC)[C@@H](C)CN(Cc1ccccc1)[C@@H](C)CO2` gave MLL AF4-AF9 inh 3.7, FGF22 binding inactive, rRNA inh HTS 2.2, rRNA inh HTS OD600 -1.3 and rRNA inh HTS RFP 1.5.
O=C(CSc1ncn(-c2ccccc2)n1)NCc1ccccc1 was read as Vif A3G 1.4%, HNF4A DNA FP -0.9, ALR inh -4.5 and Ecoli growth 0.666.
COC(=O)c1ccc(OC)c(CN2CCCN(Cc3cc(C)ccc3C)S2(=O)=O)c1 was read as Vif A3G 2.4%, HNF4A DNA FP 0.8, MLL AF4-AF9 inh -0.3, ALR inh -17.9, FGF22 binding inactive, Ecoli growth 0.746, rRNA inh HTS -7.1, rRNA inh HTS OD600 -8.9 and rRNA inh HTS RFP -0.8.
Screening CC(=O)N(C)C[C@H]1Oc2ncc(-c3ccc(C)cc3)cc2C(=O)N([C@@H](C)CO)C[C@@H]1C returned MLL AF4-AF9 inh -2.8, FGF22 binding inactive, rRNA inh HTS -0.8, rRNA inh HTS OD600 4.1 and rRNA inh HTS RFP -3.7.
For O=C(c1cccc(S(=O)(=O)N2CCCCC2)c1)N1CCCCC1 the results were Vif A3G -6.4%, HNF4A DNA FP -5.4, ALR inh 0.2 and Ecoli growth 0.737.
`COC(=O)c1ccc(CSc2nc3c(c(=O)n2-c2ccc(C)cc2)SCC3)o1` gave Vif A3G 1.4%, HNF4A DNA FP -0.7, MLL AF4-AF9 inh inconclusive, ALR inh -8.4, FGF22 binding inactive and Ecoli growth 0.77.
For O=c1cc[nH]c2c1ccc1c(=O)cc[nH]c12 the results were HNF4A DNA FP -2.8, MLL AF4-AF9 inh 0.1, FGF22 binding inactive, Ecoli growth 0.694, rRNA inh HTS 9.0, rRNA inh HTS OD600 3.5 and rRNA inh HTS RFP 0.1.
For C[C@H](CO)N1C[C@H](C)[C@@H](CN(C)C(=O)Nc2ccccc2)Oc2ccc(NC(=O)Nc3cccc4ccccc34)cc2CC1=O the results were MLL AF4-AF9 inh 2.0, FGF22 binding inactive, rRNA inh HTS 1.9, rRNA inh HTS OD600 0.2 and rRNA inh HTS RFP 1.1.
Cc1ccc(S(=O)(=O)NC(C)C(=O)OCC(=O)Nc2sccc2C(N)=O)cc1 (configuration not stated) was read as HNF4A DNA FP 0.3, MLL AF4-AF9 inh 1.9, FGF22 binding inactive, rRNA inh HTS 7.8, rRNA inh HTS OD600 12.8 and rRNA inh HTS RFP -2.3.
Screening COc1cccc2cc(C(=O)N(C)C)c(=O)oc12 returned Vif A3G -7.2%, HNF4A DNA FP 30.9, ALR inh -9.3 and Ecoli growth 0.697.
CC(C)C#Cc1ccc2c(c1)O[C@@H](CN(C)C(=O)CC1CC1)[C@H](C)CN([C@@H](C)CO)S2(=O)=O was read as MLL AF4-AF9 inh 1.9, FGF22 binding inactive, rRNA inh HTS -12.6, rRNA inh HTS OD600 -41.5 and rRNA inh HTS RFP -8.6.
Cc1ccc(S(=O)(=O)N(C)C[C@@H]2Oc3ccc(NC(=O)NC4CCCCC4)cc3C(=O)N([C@@H](C)CO)C[C@H]2C)cc1 was read as MLL AF4-AF9 inh 1.0, FGF22 binding inactive, rRNA inh HTS -6.1, rRNA inh HTS OD600 -6.5 and rRNA inh HTS RFP -1.4.
Cc1cc(OCC(=O)Nc2cc(-c3nn4c(C)nnc4s3)ccc2C)ccc1Cl was read as Vif A3G -49.3%&-29.4%, HNF4A DNA FP 13.9, MLL AF4-AF9 inh -9.4, ALR inh -6.3, FGF22 binding inactive, Ecoli growth 0.699, rRNA inh HTS 6.9, rRNA inh HTS OD600 5.8 and rRNA inh HTS RFP -1.7.
For Cc1ccc(N2CC(C(N)=O)CC2=O)cc1C (configuration not stated) the results were Vif A3G 0.9%, HNF4A DNA FP 0.1, ALR inh -6.5 and Ecoli growth 0.681.
`CC(C)(C)c1ccc(C(O)c2ncc(-c3ccccc3F)[nH]2)cc1` (configuration not stated) gave HNF4A DNA FP -1.9, MLL AF4-AF9 inh 3.3 and FGF22 binding inactive.

Screens as filed in PubChem.
